Screening data from PubChem.
CtBP-E1A inh: qHTS Assay for Inhibitors of the CtBP/E1A Interaction. AlphaScreen GST-E1A/His-CtBP binding, 1536-well; hits give low values; control for the full effect not named in the record. 0.49% of 340,000 active. activity change, % (no concentration beside the values). CtBP / adenovirus E1A interaction (AlphaScreen); in the data active means activity change below about -65%; inconclusive means about -30% to -65%; inactive means above about -30%; note: compound concentration not given in the record
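GST-E1A and His-tagged CtBP (125 nM each as 5X stock) were preincubated with pin-transferred compound for 2 h at 37 °C in the dark, then glutathione donor and nickel acceptor beads were added for 1 h before AlphaScreen reading.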
Six1-Eya2 blk: qHTS Assay for Inhibitors of the Six1/Eya2 Interaction. Homeobox protein SIX1 (Homo sapiens) + Protein phosphatase EYA2 (Homo sapiens), …. AlphaScreen GST-Six1/His-Eya2 binding, biochemical; hits give low values; control for the full effect not named in the record. activity change, % (no concentration beside the values). 0.56% of 360,000 active. AID 651725, 2012; in the data active = activity change below about -65%; inconclusive = about -30% to -65%; inactive = above about -30%; note: compound concentration not given in the record
Target sequence (O00167 whole entry, looked up): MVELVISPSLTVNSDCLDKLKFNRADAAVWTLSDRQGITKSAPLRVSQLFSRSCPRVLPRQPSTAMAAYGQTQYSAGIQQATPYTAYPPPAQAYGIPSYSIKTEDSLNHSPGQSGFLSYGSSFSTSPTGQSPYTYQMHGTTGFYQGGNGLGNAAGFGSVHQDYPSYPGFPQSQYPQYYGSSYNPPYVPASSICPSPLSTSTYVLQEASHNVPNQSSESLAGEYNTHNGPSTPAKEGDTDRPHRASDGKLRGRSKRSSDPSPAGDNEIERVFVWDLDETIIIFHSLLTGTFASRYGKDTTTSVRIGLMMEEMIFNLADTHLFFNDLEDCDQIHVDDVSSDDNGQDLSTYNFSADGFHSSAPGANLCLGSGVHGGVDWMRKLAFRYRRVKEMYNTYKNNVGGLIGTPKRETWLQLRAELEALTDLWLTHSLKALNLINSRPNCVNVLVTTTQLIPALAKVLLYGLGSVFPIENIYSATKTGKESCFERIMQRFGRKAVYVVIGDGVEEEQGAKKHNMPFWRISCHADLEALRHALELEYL
Target sequence (Q15475 whole entry, looked up): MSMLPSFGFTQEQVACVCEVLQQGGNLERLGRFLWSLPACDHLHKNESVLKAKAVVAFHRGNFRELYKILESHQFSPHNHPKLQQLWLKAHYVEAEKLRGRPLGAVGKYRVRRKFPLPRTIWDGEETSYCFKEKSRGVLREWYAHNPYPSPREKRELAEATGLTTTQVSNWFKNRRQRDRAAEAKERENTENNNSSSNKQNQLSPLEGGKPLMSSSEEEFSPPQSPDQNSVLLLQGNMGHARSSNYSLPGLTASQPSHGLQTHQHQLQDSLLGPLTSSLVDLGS
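GST-Six1 + His-Eya2 (5X stock: 250/500 nM); Tris pH 8.0, 300 mM NaCl, 0.05% BSA, 0.02% Tween 20; GSH donor/Ni acceptor beads; 1 h 37 °C dark; AlphaScreen readout.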
The depositor's hits bear a star; & = joins results of further samples. % is set by controls: 0 for no effect and ±100 for the full control effect. Some of the compounds tested; count on the stated rates, not on these rows.

For COCCCNC(=O)C[C@@H]1C[C@@]2(C(=O)OC)CC(C)(C)CC=C2N(Cc2ccc3c(c2)OCO3)C1=O the results were CtBP-E1A inh -1 and Six1-Eya2 blk 2.
CC1(C(=O)NCc2ccccc2)CN(S(C)(=O)=O)CC(=O)N1CC(F)(F)F (stereo not drawn) was read as CtBP-E1A inh -1 and Six1-Eya2 blk 3.
`O=C(C[C@H]1CC[C@@H]2[C@H](COC[C@@H](O)CN2Cc2cccc(F)c2)O1)NCC1CCCCC1` gave CtBP-E1A inh 5 and Six1-Eya2 blk -2.
COc1ccc(CCC(=O)N2c3ccccc3N=C(c3ccc4c(c3)OCO4)C2C(=O)Nc2ccc(OC)cc2)cc1 (stereo not drawn) was read as CtBP-E1A inh -6 and Six1-Eya2 blk -5.
Screening COC(=O)C1=CN(c2ccc(F)cc2)C(N)=C(C#N)C1c1ccc(-c2ccccc2)cc1 (stereo not drawn) returned CtBP-E1A inh 2 and Six1-Eya2 blk -4.
CCCCCNC(=O)C(C1CC1)n1c(=O)c(-c2ccccc2)nc2ccccc21 (stereo not drawn) was read as CtBP-E1A inh -1 and Six1-Eya2 blk 24.
For CCC(=O)N[C@H]1CC[C@@H](CCn2cc(C3CC3)nn2)O[C@@H]1CO the results were CtBP-E1A inh 0 and Six1-Eya2 blk -4.
CCOc1ccccc1CN1[C@@H](c2ccc(OC)cc2)CC(C(=O)OC)(C(=O)OC)[C@H]1c1ccccc1 was read as CtBP-E1A inh -3 and Six1-Eya2 blk -3.
Screening CCOC(=O)[C@]12CCCC=C1N(CCc1ccc(OC)c(OC)c1)C(=O)[C@H](CC(=O)N1CCCCC1)C2 returned CtBP-E1A inh -8 and Six1-Eya2 blk -5.
CO[C@@H]1CN(C)C(=O)c2cc(NC(=O)Nc3ccc4c(c3)OCO4)ccc2OC[C@@H](C)N(C)C[C@H]1C was read as CtBP-E1A inh 0 and Six1-Eya2 blk 0.
`N#Cc1cccnc1N1CCN(C(C(=O)NC2CCCC2)c2ccc(F)cc2)CC1` (stereo not drawn) gave CtBP-E1A inh -7 and Six1-Eya2 blk 4.
COC(=O)[C@]12CCCCC=C1N(CCc1ccc(OC)c(OC)c1)C(=O)[C@H](CC(=O)N1CCN(C(=O)C3CC3)CC1)C2 was read as CtBP-E1A inh 6 and Six1-Eya2 blk 7.
Screening O=C(NC1CCCCC1)C(c1cc2ccccc2o1)n1c(=O)c(-c2ccco2)nc2ccccc21 (stereo not drawn) returned CtBP-E1A inh 7 and Six1-Eya2 blk 7.
COC(=O)C1(C(=O)OC)C[C@H](/C=C/c2ccccc2)N(Cc2ccccc2OC)[C@@H]1c1cccs1 was read as CtBP-E1A inh 0&0 and Six1-Eya2 blk 5&-4.
For CC(C)(C)NC(=O)C(CCc1ccccc1)n1c(=O)c(-c2ccccc2)nc2ccccc21 (stereo not drawn) the results were CtBP-E1A inh -3 and Six1-Eya2 blk 8.
For CC1(C(=O)Nc2ccc3c(c2)OCCO3)CN(S(C)(=O)=O)CC(=O)N1CCCn1ccnc1 (stereo not drawn) the results were CtBP-E1A inh -14 and Six1-Eya2 blk 7.
Cc1ccc([C@H]2C(C(=O)O)=CCN2S(=O)(=O)c2ccc(C)cc2)cc1 was read as CtBP-E1A inh 0 and Six1-Eya2 blk 9.
For COC(=O)[C@@]12C[C@@H](CC(=O)NCCCN3CCCC3=O)C(=O)N(Cc3ccc4c(c3)OCO4)C1=CCC(C)(C)C2 the results were CtBP-E1A inh 0 and Six1-Eya2 blk -1.
Cc1cccc(C)c1NC(=O)C(c1ccc(C(F)(F)F)cc1)n1c(=O)c(-c2cc3ccccc3[nH]2)nc2ccccc21 (stereo not drawn) was read as CtBP-E1A inh 16 and Six1-Eya2 blk 46.
`O=C(C(=O)N1CCN(C/C=C/c2ccccc2)CC1)c1ccccc1` gave CtBP-E1A inh 0 and Six1-Eya2 blk 0.

An excerpt from above in order of molecular weight, low to high.
CCCCCNC(=O)C(C1CC1)n1c(=O)c(-c2ccccc2)nc2ccccc21 (stereo not drawn) was read as CtBP-E1A inh -1 and Six1-Eya2 blk 24.
Screening CCOC(=O)[C@]12CCCC=C1N(CCc1ccc(OC)c(OC)c1)C(=O)[C@H](CC(=O)N1CCCCC1)C2 returned CtBP-E1A inh -8 and Six1-Eya2 blk -5.
COC(=O)[C@]12CCCCC=C1N(CCc1ccc(OC)c(OC)c1)C(=O)[C@H](CC(=O)N1CCN(C(=O)C3CC3)CC1)C2 was read as CtBP-E1A inh 6 and Six1-Eya2 blk 7.

(further entries)
Screening CCc1ccc(N2C=C(C(=O)OC)C(c3ccccc3F)C(C#N)=C2N)cc1 (stereo not drawn) returned CtBP-E1A inh 1 and Six1-Eya2 blk -7.
For COC(=O)C[C@@H]1OC[C@H](Cc2ccccc2)N1S(=O)(=O)c1ccc(C)cc1 the results were CtBP-E1A inh -2 and Six1-Eya2 blk 19.
For CC(C)(C)OC(=O)C(Oc1ccccc1[N+](=O)[O-])C(=O)OC(C)(C)C the results were CtBP-E1A inh 3 and Six1-Eya2 blk 5.
For CCC(CC)C(C(=O)NCc1ccccc1)N(C)Cc1ccc(Cl)c(Cl)c1 (stereo not drawn) the results were CtBP-E1A inh 10 and Six1-Eya2 blk 9.
Screening COC(=O)[C@@]12C[C@@H](CC(=O)N3CCC(c4ccccc4)CC3)C(=O)N(Cc3cccc4ccccc34)C1=CCC(C)(C)C2 returned CtBP-E1A inh -6 and Six1-Eya2 blk -5.
Screening C#CCNC(=O)C[C@@H]1C[C@@]2(C(=O)OCC)CCCC=C2N(Cc2ccccc2)C1=O returned CtBP-E1A inh 1 and Six1-Eya2 blk 6.
CC(C)c1cc(Cn2c3ccccc3c(=O)n2C(C)Cn2cc(C3=CCCCC3)nn2)on1 (stereo not drawn) was read as CtBP-E1A inh -2 and Six1-Eya2 blk -4.
`O=C(C(=O)N1CCN(C(=O)c2ccco2)CC1)c1cc2ccccc2o1` gave CtBP-E1A inh 4 and Six1-Eya2 blk 0.
For CN(Cc1ccc(Cl)c(Cl)c1)C(C(=O)NCc1ccccc1)c1ccc(C(F)(F)F)cc1 (stereo not drawn) the results were CtBP-E1A inh -9 and Six1-Eya2 blk 0.
COC(=O)[C@@]12C[C@@H](CC(=O)N3CCSCC3)C(=O)N(Cc3ccccc3)C1=CCC(C)(C)C2 was read as CtBP-E1A inh -9 and Six1-Eya2 blk -3.
Cc1cccc(C)c1N1C(=O)c2ccccc2NC(=O)C1C(=O)NCCc1ccccc1 (stereo not drawn) was read as CtBP-E1A inh 11 and Six1-Eya2 blk 7.
Screening CCCCCCCCN1C(=O)[C@H](CC(=O)NCC23CC4CC(CC(C4)C2)C3)C[C@@]2(C(=O)OCC)CCC=C12 returned CtBP-E1A inh 0 and Six1-Eya2 blk -7.
`O=C(NCc1ccccc1)C1C(=O)Nc2ccccc2C(=O)N1c1ccc2c(c1)OCCO2` (stereo not drawn) gave CtBP-E1A inh -14 and Six1-Eya2 blk 1.
Screening O=C(C(=O)N1CCN(C(=O)OCc2ccccc2)CC1)c1cccs1 returned CtBP-E1A inh 3 and Six1-Eya2 blk -5.
Screening O=C(NC1CCCCC1)C(c1cccc2ccccc12)n1c(=O)c(-c2ccco2)nc2ccccc21 (stereo not drawn) returned CtBP-E1A inh 3 and Six1-Eya2 blk -15.
For CC(C)NC(=O)C1(C)CSCC(=O)N1CCCN1CCOCC1 (stereo not drawn) the results were CtBP-E1A inh -1 and Six1-Eya2 blk 5.
`CC(C)[C@H](NC(=O)OC(C)(C)C)c1cc(C(=O)NCCO)c(N)s1` gave CtBP-E1A inh -2 and Six1-Eya2 blk -1.
For CCCCCCCCN1C(=O)[C@H](CC(=O)NCc2ccccc2)C[C@@]2(C(=O)OCC)CCC=C12 the results were CtBP-E1A inh 1 and Six1-Eya2 blk -3.
O=C(NCc1ccccc1)C(C1CC1)n1c(-c2cccs2)nc2ccccc21 (stereo not drawn) was read as CtBP-E1A inh -2 and Six1-Eya2 blk -8.
COC(=O)[C@@]12C[C@@H](CC(=O)NCCCCc3ccccc3)C(=O)N(CCc3ccc(OC)c(OC)c3)C1=CCC(C)(C)C2 was read as CtBP-E1A inh -6 and Six1-Eya2 blk -9.

Continued, overlapping the part above by four compounds.
`CC(C)[C@H](NC(=O)OC(C)(C)C)c1cc(C(=O)NCCO)c(N)s1` gave CtBP-E1A inh -2 and Six1-Eya2 blk -1.
For CCCCCCCCN1C(=O)[C@H](CC(=O)NCc2ccccc2)C[C@@]2(C(=O)OCC)CCC=C12 the results were CtBP-E1A inh 1 and Six1-Eya2 blk -3.
O=C(NCc1ccccc1)C(C1CC1)n1c(-c2cccs2)nc2ccccc21 (stereo not drawn) was read as CtBP-E1A inh -2 and Six1-Eya2 blk -8.
COC(=O)[C@@]12C[C@@H](CC(=O)NCCCCc3ccccc3)C(=O)N(CCc3ccc(OC)c(OC)c3)C1=CCC(C)(C)C2 was read as CtBP-E1A inh -6 and Six1-Eya2 blk -9.
Cc1ccc(-c2cccc(=O)o2)cc1 was read as CtBP-E1A inh -2 and Six1-Eya2 blk 5.
For O=C(NCc1ccccc1)C(c1ccccc1F)n1c(=O)c(-c2ccco2)nc2ccccc21 (stereo not drawn) the results were CtBP-E1A inh 2 and Six1-Eya2 blk -4.
Screening CCCCNC(=O)C[C@@H]1C[C@@]2(C(=O)OCC)CCCC=C2N(Cc2ccccc2)C1=O returned CtBP-E1A inh -5 and Six1-Eya2 blk 6.
Screening CC(C)[C@H](NC(=O)OC(C)(C)C)c1cc(C(=O)N[C@@H](C)c2ccccc2)c(N)s1 returned CtBP-E1A inh -4 and Six1-Eya2 blk 1.
Screening COc1ccc(C2=Nc3ccccc3N(C(=O)c3cccnc3)C2C(=O)NC2CCCC2)cc1 (stereo not drawn) returned CtBP-E1A inh -22 and Six1-Eya2 blk 2.
Screening Cc1cccc(C)c1NC(=O)C1(C)CSCC(=O)N1Cc1ccco1 (stereo not drawn) returned CtBP-E1A inh -1 and Six1-Eya2 blk -4.
For CCCCCCCCN1C(=O)[C@H](CC(=O)NCc2cccc3ccccc23)C[C@@]2(C(=O)OCC)CCC=C12 the results were CtBP-E1A inh -2 and Six1-Eya2 blk -8.
`Cc1cccc(C)c1NC(=O)C(c1ccncc1)n1c(=O)c(-c2cc3ccccc3[nH]2)nc2ccccc21` (stereo not drawn) gave CtBP-E1A inh 12 and Six1-Eya2 blk 13.
For CC(C)CNC(=O)C1C(=O)Nc2ccccc2C(=O)N1C(C)(C)C (stereo not drawn) the results were CtBP-E1A inh 9 and Six1-Eya2 blk 2.
Cc1ccc(N2CCN(C(=O)C(=O)c3ccc(F)c(F)c3)CC2)cc1 was read as CtBP-E1A inh -1 and Six1-Eya2 blk -5.
For CCCCNC(=O)C1C(c2ccccc2)=Nc2ccccc2N1C(=O)c1ccc2c(c1)OCO2 (stereo not drawn) the results were CtBP-E1A inh 3 and Six1-Eya2 blk -6.
Screening Cc1ccc(S(=O)(=O)N2[C@@H](CO)CO[C@H]2CC(=O)OCc2ccccc2)cc1 returned CtBP-E1A inh -16 and Six1-Eya2 blk 9.
`COC(=O)C[C@@H]1C=C[C@@H](NC(=O)CN(C)C)[C@@H](CO)O1` gave CtBP-E1A inh 12 and Six1-Eya2 blk 0.
O=C(NC1CCCC1)C1C(c2ccccc2)=Nc2ccccc2N1C(=O)c1cc(Cl)cc(Cl)c1 (stereo not drawn) was read as CtBP-E1A inh 0 and Six1-Eya2 blk -14.
Screening COC(=O)C[C@H]1C=C[C@@H](NS(=O)(=O)c2ccccc2)[C@@H](CO)O1 returned CtBP-E1A inh 4 and Six1-Eya2 blk 0.
CSCCC(C(=O)NC(C)(C)C)n1c(-c2cccc(NC(C)=O)c2)nc2ccccc21 (stereo not drawn) was read as CtBP-E1A inh 8 and Six1-Eya2 blk 1.
Cc1cccc(C)c1NC(=O)C(c1ccccc1)N1CCN(C)CC1 (stereo not drawn) was read as CtBP-E1A inh 6 and Six1-Eya2 blk -3.
CC(C)NC(=O)C1(C)CN(S(C)(=O)=O)CC(=O)N1CC(F)(F)F (stereo not drawn) was read as CtBP-E1A inh 6 and Six1-Eya2 blk -1.
For CSCCC(C(=O)NC1CCCC1)n1c(-c2ccccn2)nc2ccccc21 (stereo not drawn) the results were CtBP-E1A inh 3 and Six1-Eya2 blk -3.
Screening COC(=O)C1(C(=O)OC)C[C@H](/C=C/c2ccccc2)N(Cc2ccccc2OC)[C@@H]1c1cccc(Br)c1 returned CtBP-E1A inh -5 and Six1-Eya2 blk -5.
Cc1cccc(C)c1NC(=O)C1(C)CN(S(C)(=O)=O)CC(=O)N1CC(F)(F)F (stereo not drawn) was read as CtBP-E1A inh 5 and Six1-Eya2 blk 1.
COc1cc(C(=O)C(=O)N2CCN(c3ccccc3)CC2)cc(OC)c1OC was read as CtBP-E1A inh 2 and Six1-Eya2 blk -13.
For CC(=O)/C=C1\OCc2ccccc21 the results were CtBP-E1A inh -5 and Six1-Eya2 blk 6.
